GLA inh pH 4.5 – alpha-galactosidase A (human) inhibition, pH 4.5; 230,000 tested, under 10 active; AID 1467; activity change, negative = inhibition, % at 105 µM; purified enzyme, 4-MU-alpha-Gal fluorescence, pH 4.5; inconclusive = small, poorly fitted or top-dose-only inhibition, or a rising curve; inactive = flat fitted curve, though single readings scatter; no compound was filed as active;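 also: 0% = full activity with enzyme and -100% = basal without enzyme; dose as in the result columns while the protocol names 77 µM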
Target sequence (P06280 whole entry, looked up): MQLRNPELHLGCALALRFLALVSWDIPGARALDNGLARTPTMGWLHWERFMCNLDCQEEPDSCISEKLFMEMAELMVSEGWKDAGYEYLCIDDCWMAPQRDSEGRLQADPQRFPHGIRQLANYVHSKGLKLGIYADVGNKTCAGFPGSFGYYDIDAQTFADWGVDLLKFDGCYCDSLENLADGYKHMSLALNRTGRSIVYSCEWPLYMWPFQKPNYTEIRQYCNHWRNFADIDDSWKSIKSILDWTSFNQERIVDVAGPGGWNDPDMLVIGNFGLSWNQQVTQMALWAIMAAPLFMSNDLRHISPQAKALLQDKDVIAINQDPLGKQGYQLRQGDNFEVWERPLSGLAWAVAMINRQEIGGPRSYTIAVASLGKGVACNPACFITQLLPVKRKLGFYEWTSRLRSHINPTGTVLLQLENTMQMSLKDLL
Rango-impB inh – Rango-importin beta binding inhibition; Q14974; 340,000 compounds, 0.031% hits; Potency, µM (titrated, usually from 92.2 µM), for the others: at the top dose inhibition of complex formation; Rango CFP/YFP FRET sensor + importin beta, 45 min; AID 540263; active = rising FRET ratio curve, often small or poorly fitted; inconclusive = mostly compound fluorescence or quenching in the first reads; inactive = flat curves in all reads;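 also: potency is read from the fitted curve at half-maximal effect; 0% = DMSO wells and 100% = buffer wells lacking importin beta; nearly all actives have a fitted effect of over 15% in size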
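FRET biosensor (snurportin 1 IBB flanked by EYFP and cerulean), 50 nM, with compound 5 min, then 0.125 microM importin beta in PBS, 1 mM DTT, 0.02% Tween-20, 0.1% BSA. CFP/YFP ratio read after 45 min at room temperature; pre-read flags interference.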
miR-21 FLuc – miR-21 reporter, rising signal. HeLa miR-21 FLuc reporter, luciferase, 48 h. Potency, µM (top dose mostly 38.3 µM), inactives show at the highest dose reporter change, positive = more light. 340,000 tested, under 10 active. AID 2288; active = well fitted rising curve with a large enough effect; inconclusive = small, poorly fitted or top-dose-only effect; inactive = no such curve, though single readings can be large or run the other way;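 also: % of control where 0% means no effect; miR-21 action dims this reporter so a rising signal means less miR-21 action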
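Compounds were titrated across several concentrations (up to approximately 40 uM) and incubated 48 hours with HeLa miR-21-FLuc reporter cells (miR-21 target sequence downstream of FLuc, endogenous miR-21). Readout was firefly luciferase luminescence after lytic detection reagent.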
Rango release inh – inhibitors of RanGTP-induced Rango-importin beta complex dissociation; 340,000 compounds, 0.071% hits; Potency, µM (series often up to 46.1 µM), without a hit: at the top dose activity change, negative = inhibition; O95149+P62826; Biochemical FRET Rango-importin beta, RanGTP-induced dissociation; active means falling FRET ratio curve, often poorly fitted, with flat reads before Ran was added; inconclusive means other falling curves, or compound fluorescence or quenching; inactive means flat or rising ratio curve;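 also: potency is read from the fitted curve at half-maximal effect; % of control where 0% means no effect; nearly all actives have a fitted effect of over 45% in size; -100% = wells without RanGTP and RCC1; the record marks most hits as doubtful in a second field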
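Quantitative HTS using a FRET biosensor: 0.1 uM Rango, 0.25 uM importin beta, 0.6 uM Ran, 2 mM GTP, 0.2 uM RCC1 final, PBS with DTT, Tween-20 and BSA. Post-read taken 45 min after Ran addition.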
The depositor's hits bear a star; ? = inconclusive; nt = no result given; & = joins results of further samples. This is a subset (hit frequency here may not be typical).

miR-21 FLuc,Rango release inh,GLA inh pH 4.5,Rango-impB inh,canonical_smiles
-47%,11%,nt,-1.9%,O=C(NCc1cc(F)ccc1F)C1CCC(=O)N(C2CCCCCC2)C1 (stereo not drawn)
-49%,-13%,3,-3.7%,CC(/C=N/NC(=O)Cc1cccs1)=C\c1ccco1
-17%,18%,-1,-1.8%,CCN(CCNC(=O)CCCn1nc(C)n2c(cc3sccc32)c1=O)c1ccccc1
-1%,-8%,0,3.4%,Cc1nn(C)c(C)c1/C=N/O
-39%,4%,-12,?,COc1ccc(/C=C2\CCc3ccccc3C2=O)cc1OC
2%,-10%,-26,-2.0%,COc1cc(C)ccc1OCCCCOc1ccccc1C(C)=O
8%,?,-3,?,COc1ccc2nc3c(cc2c1)c(NC(=O)c1cccs1)nn3CC(C)C
-4%,6%,nt,0.3%,NC(=O)COc1ccc(/C=N\NC(=O)c2ccc(-c3ccccc3)cc2)cc1
-15%,12%,0,1.9%,CN(c1ccc(C(=O)NC2CC2)cc1)S(=O)(=O)c1ccccc1
nt,29%,nt,1.0%,COc1ccc(NC(=O)c2cccc(S(=O)(=O)NCc3ccco3)c2)c(OC)c1
23%,-26%,-16,0.6%,CCN(CC)CCC(c1ccc(N(C)C)cc1)c1c(OC)cc(OC)c2c(-c3ccccc3)cc(=O)oc12 (stereo not drawn)
2%,-2%,nt,-1.9%,CC(=O)c1cccc(NC(=O)Nc2nc(C)cc(C)n2)c1
nt,3%,nt,-2.1%,COc1cccc(-c2sc3ccc(OC)cc3c2C#CCC(C)O)c1 (stereo not drawn)
-3%,0%,nt,-1.3%,COc1ccccc1NS(=O)(=O)c1ccc(C(=O)NCC(c2ccccc2OC)N(C)C)cc1 (stereo not drawn)
-11%,1%,-9,7.4%,COc1ccc(OC)c(NC(=O)c2cccnc2Sc2cc(C)ccc2C)c1
-13%,-3%,2,-2.6%,CSc1ccc(CN2CCCC(CNC(=O)c3ccc(F)cc3)C2)cc1 (stereo not drawn)
-1%,10%,-5,-1.2%,CSc1cccc(NC(=O)CN(c2cc(C)ccc2C)S(C)(=O)=O)c1
-2%,-1%,-4,0.5%,Cc1cccc(-n2c(Cc3cc(=O)[nH]c(=O)[nH]3)nnc2SCC(=O)NCC2CCCO2)c1 (stereo not drawn)
-2%,-5%,-11,1.1%,CCOc1ccccc1NC(=O)CSc1nnc2c(CC)c(C)nc(N)n12
-1%,3%,nt,5.9%,CCCc1ccc2oc(C(=O)N(C)Cc3cnccn3)c(C)c2c1
-16%,-1%,nt,-3.3%,Clc1nc(-c2ccccc2)c2ccccc2n1
-1%,-10%,-3,-1.9%,Cc1cc(C)c(C2=CSC3=NS(=O)(=O)CCN23)c(C)c1
1%,9%,3,0.8%,Cc1ccc(S(=O)(=O)NN2C(=O)c3ccccc3NC2c2ccccn2)cc1 (stereo not drawn)
-2%,1%,2,-3.1%,CC(Oc1ccccc1Cl)C(=O)N(Cc1ccco1)C1CCS(=O)(=O)C1 (stereo not drawn)
nt,-1%,nt,-5.9%,CC(C)NC(=O)Nc1cccc2c1O[C@H](CN(C)S(=O)(=O)c1cccs1)[C@@H](C)CN([C@H](C)CO)C2=O
nt,-15%,nt,-2.0%,COc1ccc(OC)c(/C=C/C(=O)OCC(=O)N2CCCCC2)c1
-2%,-4%,2,-0.5%,Cc1nn(C)c(C(=O)N/N=C/c2cc3c(cc2Br)OCO3)c1Br
-6%,-15%,2,4.2%,COC(=O)c1sccc1NC(=O)CC1C(=O)NCCN1C(=O)c1ccc(F)cc1 (stereo not drawn)
18%,27%,-3&-1,4.3%,O=C(Nc1cccc(Cl)c1)OCCN1CCN(Cc2ccccc2)CCC1=O
-3%,13%,-4,-2.3%,COc1ccc(NC(=O)CN2CCC(NC(=O)C3CCCCC3)CC2)cc1
4%,-14%,nt,-1.1%,Cc1cccc(N(Cc2ccccc2)C(=O)c2ccccc2F)c1
-8%,-18%,5,1.5%,C=CCNC(=O)c1ccccc1NC(=O)c1ccccc1N(C)S(C)(=O)=O
nt,-1%,nt,3.0%,COc1ccc(C(=O)COC(=O)c2cc(=O)[nH]c3ccccc23)c(OC)c1
-3%,-25%,nt,0.8%,CC1CCN(C(=O)COC(=O)Cc2c[nH]c3ccccc23)CC1
0%,-5%,-5&4,-0.3%,CCC1=C2CC[C@H]3C(=O)N(C)C(=O)[C@H]3[C@H]2[C@@]2(Cc3ccccc3)C(=NCC(=O)OC)OC(=O)N2C1=O
-2%,nt,3,nt,CSc1nc(-c2ccccc2)nc(N)c1C(C)=O
-5%,17%,-6,-1.0%,CC(=O)N(CCC(c1ccco1)C(C)C)Cc1ccc(OC(C)C)cc1 (stereo not drawn)
-43%,0%,3,6.0%,CC1(C)CNc2cc([N+](=O)[O-])ccc2S1
nt,-5%,nt,?,CCOC(=O)c1c(N/C=C(\C#N)c2nc(-c3ccc(OC(C)=O)cc3)cs2)sc2c1CCC2
nt,-4%,nt,0.2%,COCCN(C(=O)COC(=O)c1ccccc1NCc1ccco1)c1c(N)n(Cc2ccccc2)c(=O)[nH]c1=O
-3%,26%,nt,-0.8%,O=C(NCCNC(=O)c1cc(F)cc(F)c1)c1cc(F)cc(F)c1
-4%,15%,-2,-2.1%,Cc1ccc(NC(=O)CSc2nnc(-c3cccnc3)s2)cc1
2%,-4%,1,?,CC(=O)c1c(C)[nH]c(C(=O)CSc2nnc(-c3ccco3)o2)c1C
-47%,25%,-5,-2.4%,COCCCNC(=S)NNC(=S)Nc1cccc(Cl)c1
-6%,6%,1,6.9%,COc1ccc(Oc2nc3c(c(=O)n(C)c(=O)n3C)n2Cc2cccc(OC)c2)cc1
-3%,-10%,2,-3.3%,COc1ccc2c(C)cc(Sc3nnnn3-c3ccccc3)nc2c1
-23%,-4%,nt,-0.1%,Cc1ccc(S(=O)(=O)NC(=O)c2cccc(C)c2)cc1
nt,3%,nt,1.0%,CC(=O)n1cc([C@H]2C=C(C(N)=O)O[C@@H](OCc3ccc(CO)cc3)C2)c2ccccc21
-7%,-15%,-2,-0.2%,Cc1ccc(NS(=O)(=O)c2ccc(C(=O)N3CCCN(C)CC3)cc2)cc1
-4%,20%,2,-0.2%,Cn1cc([N+](=O)[O-])c(C(=O)NCc2cc3ccccc3[nH]2)n1
nt,6%,nt,0.8%,Cc1ccc(OCCC(=O)OCC(=O)NC(=O)NC2CCCCC2)cc1
0%,-9%,1,4.7%,COc1ccc(C(=O)N/C(=C/c2cccs2)C(=O)NCCCn2ccnc2)cc1OC
nt,12%,nt,2.9%,OCC1OCOC2C(CO)OCOC12 (stereo not drawn)
?,?,-7,0.3%,N#CC(C#N)=C1C=CC=CN1/C(=C\c1ccco1)C(=O)c1ccc(-c2ccccc2)cc1
-6%,8%,2,5.9%,NC(=O)NC(=O)CSc1nc2cc([N+](=O)[O-])ccc2n1-c1cccc(C(F)(F)F)c1
-19%,-12%,-9,-0.7%,COc1ccc(/C=C\C(=O)Oc2cccc(/C=N/NC(=O)Cc3ccc(OC)c(OC)c3)c2)cc1
-36%,-1%,3,-0.2%,COc1ccc(NC(=O)c2cccc([N+](=O)[O-])c2)cc1
nt,-8%,nt,1.4%,Cc1ccc2c(c1C)C(=O)C(=O)N2
1%,0%,nt,-0.2%,O=C(c1cc(S(=O)(=O)N2CCCC2)c(Cl)cc1Cl)N1CCCC1
-1%,4%,nt,-4.8%,O=C(N/N=C/c1ccc(OC(=O)c2ccco2)cc1)c1ccncc1

(cont.)
miR-21 FLuc,Rango release inh,GLA inh pH 4.5,Rango-impB inh,canonical_smiles
1%&4%,-14%,nt,-1.7%,CCOc1ccc(CCNC(=O)Cn2nc(C)c3c(C)n(-c4ccccc4)nc3c2=O)cc1OCC
-2%,-9%,-4,4.7%,CCC(C)C(NC(=O)OC(C)(C)C)C(=O)NC(C)C(N)=O (stereo not drawn)
?,-10%,-3,2.6%,CC1C/C(=C\c2cccnc2)C(=O)/C(=C/c2cccnc2)C1 (stereo not drawn)
-38%,3%,2,-3.6%,O=C1C2C3C=CC(C4CC34)C2C(=O)N1/N=C/c1cccs1 (stereo not drawn)
-35%,?,nt,1.5%,O=C(Nc1ccccc1Cl)Nc1cccc2cccnc12
nt,-12%,nt,2.8%,COc1ccc(-c2noc(CCC(=O)N3CCN(c4cccc(C)c4C)CC3)n2)cc1
-3%,0%,?,-10%,COc1ccc(NC(=O)c2ccc(OCc3c(C)noc3C)c(OC)c2)cn1
9%,2%,nt,-1.6%,COc1cc(NC(=O)Cc2ccc(OC)c(S(=O)(=O)N3CCOCC3)c2)c(OC)cc1Cl
-11%,12%,-1,2.9%,Cc1nn(CCCC(=O)NCc2ccc(F)cc2)c(C)c1[N+](=O)[O-]
1%,2%,nt,0.7%,CC(CC(=O)N1CCN(S(=O)(=O)c2ccccc2)CC1)n1cncn1 (stereo not drawn)
nt,-19%,nt,-2.6%,CCC1(c2ccccc2)NC(=O)N(CC(=O)Nc2cc(S(=O)(=O)N3CCOCC3)ccc2OC(C)C)C1=O (stereo not drawn)
-7%,-9%,nt,1.6%,Cc1cc(OCC(O)CN2CCOCC2)cc(C)c1Cl (stereo not drawn)
-3%,12%,-6,-1.1%,COCCNC(=O)NC(=O)COC(=O)c1cccn1C
-6%,7%,-3,-1.2%,CSc1sc(C(=O)N2CCCCC2)c(-c2cccs2)c1C#N
-9%,9%,-2,-1.7%,COc1ccc(OC)c(Nc2nc(NCc3ccco3)nc(N)c2[N+](=O)[O-])c1
-6%,-18%,nt,0.1%,CN(CCCNC(=O)Cn1c(=O)c2cccn2c2ccccc21)Cc1ccccc1
1%,-10%,-7,-2.6%,CC(=O)c1c(C)[nH]c(C(=O)OCC(=O)Nc2cc(C)on2)c1C
16%,6%,nt,3.6%,COc1ccc(CNC(=O)CCNS(=O)(=O)c2cc(Br)cnc2N)cc1
3%,?,nt,1.2%,COc1ccccc1N(CC1CO1)S(=O)(=O)c1ccc(C)cc1 (stereo not drawn)
-70%,-5%,-9,-0.5%,COc1ccc(Br)cc1S(=O)(=O)N1CCCC1
-32%,-12%,nt,?,Cc1ccc(NC(=O)N2CCCc3ccccc32)cc1C
1%,?,2,?,CC(C)CCNC(=O)c1cc2c(s1)-c1ccccc1S(=O)(=O)C2
-2%,0%,-1,4.0%,O=C(C1CCCO1)N1CCN(c2ccccn2)CC1 (stereo not drawn)
-4%,-7%,1,-2.5%,CCOC(=O)C1=C(N)OC2=C(C(=O)CC(C)(C)C2)C1c1cccnc1 (stereo not drawn)

Source: PubChem BioAssay
